VDR inh – vitamin D3 receptor (human) inhibition | VDR-SRC2-3 peptide fluorescence polarization, 2 h | Potency, µM, inactives show max response, negative = inhibition, hits mostly inhibitors | hit rate 0.93% among 400,000; active = well fitted inhibition curve with a large enough effect; inconclusive = small, poorly fitted or top-dose-only effect, or another doubt; inactive = no such curve, though single readings can be large or run the other way; also: series mostly up to about 120 µM
Target sequence (P11473 whole entry, looked up): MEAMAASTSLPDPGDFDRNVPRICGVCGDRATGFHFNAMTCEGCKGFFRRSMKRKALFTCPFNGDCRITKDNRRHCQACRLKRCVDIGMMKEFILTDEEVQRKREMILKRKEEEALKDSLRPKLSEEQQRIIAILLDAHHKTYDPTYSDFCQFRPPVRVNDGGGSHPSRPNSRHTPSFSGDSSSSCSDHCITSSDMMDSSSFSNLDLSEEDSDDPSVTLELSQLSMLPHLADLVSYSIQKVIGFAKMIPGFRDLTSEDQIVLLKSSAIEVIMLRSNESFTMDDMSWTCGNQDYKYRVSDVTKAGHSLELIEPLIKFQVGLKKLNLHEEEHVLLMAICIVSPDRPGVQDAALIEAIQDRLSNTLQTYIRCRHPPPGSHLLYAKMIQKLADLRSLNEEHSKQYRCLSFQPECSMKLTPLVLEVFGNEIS
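Fluorescence polarization assay of small-molecule disruption of VDR binding to coregulator peptide SRC2-3. Compounds and controls pin-transferred, then read after 2 h incubation at ambient room temperature.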
An asterisk follows results filed as active; ? = inconclusive; & = joins results of further samples. % is scaled to controls: 0 for no effect and ±100 for the full control effect; potency is read from the fitted curve at half-maximal effect. Some of the compounds tested; count on the stated rates, not on these rows.

SMILES | VDR inh
CC(=O)c1c(C)[nH]c(C(=O)NC(C)c2ccccc2)c1C (stereo not drawn) | 6%
COc1cccc(CNC(=O)Cn2nc(C)c3sc4ccccc4c3c2=O)c1OC | 20%
COC(=O)c1ccc(COC(=O)CNC(=O)c2ccc(OC)cc2)cc1 | 0%
CN(C(=O)c1ccc(NC(=O)Cc2ccc(NC(=O)C3CCN(C(=O)C4CCC4)CC3)cc2)cc1)C1CC1 | 3%
Cc1cc(C)c(S(=O)(=O)NC(CC(=O)O)c2cccc([N+](=O)[O-])c2)c(C)c1 (stereo not drawn) | -2%
Cc1noc(C)c1COc1ccccc1C(=O)NNC(=O)C(C)Oc1ccccc1F (stereo not drawn) | ?
Cc1nnc(CN(C)C(=O)c2cc(COc3ccc(C)c(C)c3)on2)o1 | -5%
COc1ccccc1NC(=O)C(C)OC(=O)CCCc1c[nH]c2ccccc12 (stereo not drawn) | ?
NNC(=O)CNc1cccc(Cl)c1 | 0%
COc1ccc2ccccc2c1CNCCN1CCOCC1 | 5%
CCN1CCN(C(=O)C2COc3ccccc3O2)CC1 (stereo not drawn) | 30%
Fc1ccc(CNc2ccc(CNc3ncn[nH]3)cc2)cc1 | -1%
Cn1ccs/c1=N\C(=O)Nc1cccc(C(F)(F)F)c1 | -7%
CN(C)S(=O)(=O)N1CCC(n2cnc3cccnc32)CC1 | -2%
COc1ccccc1-c1nnc(SCC(=O)NC2CCCCC2)n1C | 18%
CCCn1c(/C=C/c2ccco2)nc2ccccc21 | -9%
COc1cc2ncnc(NCc3ccc(C)cc3)c2cc1OC | 3%
Cc1ccc(S(=O)(=O)N2[C@@H](c3ccccc3)C(C(=O)O)=CC[C@H]2c2cccs2)cc1 | -12%
C#CCOCCOCCOCCNc1nc(N2CCN(C(=O)[C@H](Cc3ccc(O)cc3)n3cc([C@@H](N)C(C)CC)nn3)CC2)nc(N2CCN(C(=O)[C@H](CCCCN)n3cc([C@@H](N)CO)nn3)CC2)n1 (stereo partly drawn) | -15%
COc1cccc(NC(=O)c2ccc(S(=O)(=O)N(C)C)cc2)c1 | 1%
Cc1ccc(C(C(=O)NC2CCCCC2)N(C(=O)c2csnn2)C2CC2)cc1 (stereo not drawn) | -3%
CC(=O)c1ccc(NC(=O)c2cc(C)nc3ccccc23)cc1 | -9%
CCOC(=O)C(Cc1c[nH]c2cc([N+](=O)[O-])ccc12)(NC(C)=O)C(=O)OCC | -17%
Cc1nnsc1C(=O)Nc1cccc(Cl)c1C | -9%
COc1ccc(C)cc1NC(=O)C(NC(=O)c1cc(OC)c(OC)c(OC)c1)C(C)C (stereo not drawn) | ?
Cc1ccc(S(=O)(=O)Nc2cccc(-c3ccc(N4CCCCC4)nn3)c2)s1 | 10%
CCOC(=O)c1ccc(NC(=O)CC2C(=O)N(c3cccc(OC)c3)C(=O)N2CCOC)cc1 (stereo not drawn) | 8%
Cn1c2ccc(F)cc2c2ncn(CC3CCCO3)c(=O)c21 (stereo not drawn) | -10%
CC1(C)CN(O)CCN1O | 0%
COc1cccc(CNC(=O)c2ccc(CN3CC(=O)N4CCCCC4C3=O)cc2)c1 (stereo not drawn) | 1%
CCCC(=O)NC(=S)Nc1ccccc1C(=O)OC | -17%
S=C(NCc1ccccc1)NCc1ccccc1Cl | 28%
CC(C)(CO)CNC(=O)CCc1nnc(-c2ccc(-c3ccccc3)cc2)o1 | -12%
O=C(CSc1nnc(CNC(=O)c2c(F)cccc2F)o1)NCC1CCCO1 (stereo not drawn) | -6%
Cc1nc2ccc(S(=O)(=O)NC(C(=O)N3CCCCCC3)C(C)C)cc2s1 (stereo not drawn) | -13%
CCc1ccc(-c2cc(C(F)(F)F)n3nc(C(=O)Nc4c(C)nn(Cc5ccccc5C)c4C)cc3n2)s1 | 9%
Cc1cc(C)nc(SCc2ccc(C(=O)N/N=C/c3ccccn3)cc2)n1 | -24%
COc1ccccc1NS(=O)(=O)c1ccc(NC(=O)Cc2cccs2)cc1 | 4%
O=C(NCCNc1ccc([N+](=O)[O-])cc1)c1ccc(Cl)cc1 | -7%
Cc1cc(C)nc(SCC(=O)Nc2ccc(N3CCOCC3)cc2)n1 | -12%
CS/C(=C\[N+](=O)[O-])Nc1ccccc1 | -5%
CCCC(=O)NCCc1nc2ccccc2n1C | 3%
C[C@H](CO)N1C[C@H](C)[C@@H](CN(C)S(=O)(=O)c2ccccc2)Oc2ccc(NS(=O)(=O)c3ccccc3)cc2C1=O | -1%
COCc1cc(=O)n2[nH]c(SC)nc2n1 | -1%
CC(=O)c1ccc(NC(=O)COC(=O)c2ccccc2Nc2ccccc2)cc1 | ?
O=C(CCC1N=C2c3ccccc3N=C(SCc3ccc(Cl)cc3)N2C1=O)NC1CCCCC1 (stereo not drawn) | -4%
O=C(O)C1CC1(c1ccccc1)c1ccccc1 (stereo not drawn) | 2%
O=C(NCc1cccc2ccsc12)c1cccs1 | 4%
COc1ccccc1N1CC(C(=O)NC2CCCCCC2)CC1=O (stereo not drawn) | -9%
CN(Cc1ccc(Cl)cc1)C(=O)COC(=O)c1ccc(-c2ccc(O)cc2)cc1 | 3%
C/C=C/C(=O)N1CC2(CC(c3cccc(NC(=O)CC(c4ccccc4)c4ccccc4)c3)=NO2)C[C@H]1C(N)=O (stereo partly drawn) | -13%
CCC1=C(OC(=O)N(CC)CC)N2C(=O)OC(=NCCOC)[C@]2(Cc2ccccc2)[C@H]2C1=CC[C@H]1C(=O)NC(=O)[C@H]12 | -17%
CC(NC(=O)C(=O)NCCN1CCN(C(=O)c2ccccc2Br)CC1)c1ccccc1 (stereo not drawn) | 18%
O=c1c2cnn(-c3ccccc3)c2ncn1Cc1cccc(Cl)c1 | -15%
N#C/C(=C\c1ccc(-c2ccccc2[N+](=O)[O-])o1)C(N)=O | -1%
Cc1c(C(=O)/C=C/c2cccs2)oc2ccc(F)cc12 | ?
Cc1ccc(-c2noc(CSc3nnc(Cc4ccccc4)n3-c3ccc(Cl)cc3)n2)cc1 | -4%
CCc1cc2c(cc3c(=O)n(CC(=O)NCCCN(CC)CC)nc(CC)n32)s1 | -9%
Cc1noc(/C=C/c2ccco2)c1S(=O)(=O)N1CCC(C(=O)Nc2ccc(F)c(Cl)c2)CC1 | -4%
O=C(CCCc1nc(-c2ccccc2Cl)no1)NC1CCCC1 | 12%
(more compounds)
SMILES | VDR inh
Cc1ccc(C(=O)N2CCN(S(=O)(=O)c3cc(Br)ccc3Br)CC2)o1 | 7%
CCOC(=O)c1c(CN2CCN(c3ccccc3)CC2)oc2cc(Br)c(O)cc12 | -9%
O=C(OC1CCN(c2ncc(C(F)(F)F)cc2Cl)CC1)c1ccccc1 | 10%
CCOC(=O)c1c(/N=C/N(C)C)sc(C(=O)OC)c1C | 6%
CC(=O)Nc1ccc(S(=O)(=O)N2CCC(NC(=O)C(Cc3ccc(C)cc3)NC(C)=O)CC2)cc1 (stereo not drawn) | 15%
CC1CN(C(NC(=O)c2ccccc2)C(Cl)(Cl)Cl)CC(C)O1 (stereo not drawn) | 8%
CCN(Cc1ccccc1)S(=O)(=O)c1cc(Br)cc2c1N(C(=O)C1CC1)CC2 | 0%
COC(=O)CNC(=O)CSc1nc2sccc2c(=O)n1-c1ccccc1 | 0%
CCOC(=O)N1CCN(Cc2nc3cc(NC(=O)c4ccco4)ccc3n2CC)CC1 | -15%
O=C(c1ccco1)c1cn(CC(=O)N2CCCC2)c2ccccc12 | -13%
Cc1ccc(CNC(=O)Cn2c(=O)n(-c3ccc(C)cc3)c(=O)c3c2c2cc(C)ccc2n3C)cc1 | 21%
O=C(c1ccc2c(c1)OCCO2)N1CCCC(CNS(=O)(=O)c2cccs2)C1 (stereo not drawn) | -6%
Cc1ccc(-n2nnnc2SCC(=O)NC(=O)Nc2ccc3c(c2)OCCO3)cc1 | 14%
COCCn1c(SCC(=O)Nc2ccc(S(=O)(=O)N3CCOCC3)cc2)nc2ccccc21 | -19%
Cn1ccnc1Sc1ccc(/C=N/NC(=O)c2ccccc2O)cc1[N+](=O)[O-] | ?
O=Cc1ccc(C(=O)OCC(=O)NCCC2=CCCCC2)cc1 | -15%
CCCc1cc(=O)oc2c3c(cc(OCC(=O)NCc4ccccn4)c12)OC(C)(C)CC3 | -29%
CC(C)c1nc(SCC(=O)Nc2ccc(N(C)C)cc2)c2ccccc2n1 | 17%
O=C(CN1CCOCC1)N/N=C/c1ccc(-c2ccc(C(=O)O)cc2)o1 | -2%
CC(=O)NC(CC(=O)OCC(=O)N1CCN(S(=O)(=O)c2ccc(C)cc2C)CC1)c1ccccc1 (stereo not drawn) | 1%
O=C(CSc1cccc[n+]1[O-])C12CC3CC(CC(C3)C1)C2 | 5%
Cc1ccc(S(=O)(=O)N2CCN(C(=O)c3nn(C(C)C)c(=O)c4ccccc34)CC2)cc1C | 2%
Cc1oc2c(cc(NS(=O)(=O)c3ccc(C(C)C)cc3)c3ccccc32)c1C(=O)O | -3%&-20%
CN(C(=O)COC(=O)c1ccc(=O)n(Cc2ccccc2)n1)C1CCS(=O)(=O)C1 (stereo not drawn) | -5%
O=C(NS(=O)(=O)c1ccc(Cl)s1)c1ccccc1 | -25%
Cn1c(SCC(=O)NNC(=O)Nc2ccccc2)nnc1-c1ccccc1 | 2%
Cc1cccc(CN2CCC(n3nccc3NC(=O)c3ccccc3C)CC2)n1 | 6%
O=S(=O)(c1cccs1)N1CCN(c2ccc(O)cc2)CC1 | -3%
O=C(NC(=S)Nc1ccc(Cc2ccncc2)cc1)c1ccc(F)cc1 | -3%
COc1ccc(CCNC(=O)c2cc(-c3ccccc3)c(N3CCOCC3)s2)cc1OC | -8%
COc1ccc(S(=O)(=O)Nc2ccc(C)cc2)cc1N(C)S(=O)(=O)c1ccc(Cl)cc1 | -4%
O=C(Cc1cccc(NC(=O)C2CCCN(C(=O)c3ccccc3)C2)c1)Nc1cccc(C(=O)N2CCCCC2)c1 (stereo not drawn) | -2%
O=C(CNC(=O)c1ccc(Cl)cc1)N/N=C/c1cccnc1 | -7%
CCOc1ccc(CNC(=O)CCS(=O)(=O)c2ccc3c(c2)NC(=O)CO3)cc1OC | -15%
CN1CCN(C(=O)CCCN2C(=O)/C(=C/c3ccc(Cl)cc3)SC2=S)CC1 | -7%
CCn1c(C)c(C)c2cc(C(=O)NC3CCCCCC3)ccc21 | 1%
COC(=O)c1cc(S(=O)(=O)NCC2CCN(CCc3ccc(OC)cc3)CC2)cn1C | -2%
Clc1ccc(SCCOCCN2CCCCCC2)cc1 | -4%
Cn1cnc2c(=O)oc3ccc(S(=O)(=O)N4CCN(c5cccc(C(F)(F)F)c5)CC4)cc3c21 | 2%
Cc1ccc[n+](CC(=O)c2ccc(NC(=O)c3ccccc3)cc2)c1 | -4%
CN(C)c1ncc2nc(-c3cc(F)cc(F)c3)c(=O)n(Cc3cccs3)c2n1 | -19%
Cc1ccccc1OCc1nc(-c2ccc(Br)o2)no1 | -11%
CSc1c(CC(=O)Nc2ccc(F)cc2)n(Cc2ccccc2)c2ccccc12 | -10%
O=C(O)c1ccc(NS(=O)(=O)c2ccc(N3C(=O)CCC3=O)cc2)cc1 | 2%
O=C(Cn1c(=O)oc2cc(S(=O)(=O)N3CCCC3)ccc21)N1CCN(c2ccccn2)CC1 | -10%
Cc1nc2n(n1)CC(O)CS2 (stereo not drawn) | 1%
O=C(COc1ccc(Br)cc1CO)Nc1ccccc1 | -12%
N#CCCn1c(=O)c(-c2ccccc2)nc2cnc(Oc3ccccc3)nc21 | 2%
Cn1nccc1NS(=O)(=O)c1ccc(C(C)(C)C)cc1 | -14%
CCOc1ccc(NC(=O)C2CCCN2C(=O)OCc2ccccc2)cc1 (stereo not drawn) | 7%
NC(=O)C1CCN(S(=O)(=O)c2ccccc2[N+](=O)[O-])CC1 | 4%
C[C@@H]1C=C(C(=O)NCc2ccccc2)O[C@H](OCc2ccc(CO)cc2)C1 | 7%
CC(=O)c1ccc(NC(=O)c2nn(C)c3c2COc2ccccc2-3)cc1 | 10%
Nc1ccc2c(c1)N1CCN=C1S2 | -12%
OCCNCCOc1ccccc1-c1ccccc1 | -5%
COc1ccccc1OCCOCCOc1ccc(C)cc1[N+](=O)[O-] | 0%
Cc1ccc(C(=O)O/N=C(\N)c2ccc(Br)cc2)cc1 | -19%
O=C(CCCOc1ccc(Cl)cc1Cl)n1nnc2ccccc21 | 71µM*
COc1cc(NC(=O)c2c(C)nn(-c3ccc(F)cc3)c2-n2cccc2)cc(OC)c1 | 5%
CC(=O)OCc1cc(-c2nn(C)c(=O)c3ccccc23)ccc1C | -21%
CN(C)CC(=O)Nc1ccc2cn[nH]c2c1 | -10%

By substructure, the entries above with two or more sulfur atoms.
SMILES | VDR inh
Cc1ccc(S(=O)(=O)N2[C@@H](c3ccccc3)C(C(=O)O)=CC[C@H]2c2cccs2)cc1 | -12%
Cc1ccc(S(=O)(=O)Nc2cccc(-c3ccc(N4CCCCC4)nn3)c2)s1 | 10%
Cc1nc2ccc(S(=O)(=O)NC(C(=O)N3CCCCCC3)C(C)C)cc2s1 (stereo not drawn) | -13%
COc1ccccc1NS(=O)(=O)c1ccc(NC(=O)Cc2cccs2)cc1 | 4%
C[C@H](CO)N1C[C@H](C)[C@@H](CN(C)S(=O)(=O)c2ccccc2)Oc2ccc(NS(=O)(=O)c3ccccc3)cc2C1=O | -1%
O=C(NCc1cccc2ccsc12)c1cccs1 | 4%
COC(=O)CNC(=O)CSc1nc2sccc2c(=O)n1-c1ccccc1 | 0%
O=C(c1ccc2c(c1)OCCO2)N1CCCC(CNS(=O)(=O)c2cccs2)C1 (stereo not drawn) | -6%
COCCn1c(SCC(=O)Nc2ccc(S(=O)(=O)N3CCOCC3)cc2)nc2ccccc21 | -19%
O=C(NS(=O)(=O)c1ccc(Cl)s1)c1ccccc1 | -25%
O=S(=O)(c1cccs1)N1CCN(c2ccc(O)cc2)CC1 | -3%
COc1ccc(S(=O)(=O)Nc2ccc(C)cc2)cc1N(C)S(=O)(=O)c1ccc(Cl)cc1 | -4%
CN1CCN(C(=O)CCCN2C(=O)/C(=C/c3ccc(Cl)cc3)SC2=S)CC1 | -7%

Screening data as filed in PubChem BioAssay.
